VDR inh – blocks the human vitamin D receptor. P11473. VDR-SRC2-3 peptide fluorescence polarization, 2 h. Potency, µM, for the others: max response, negative = inhibition, usual class: inhibitors. actives 0.93% (n = 400,000). AID 504847; active = well fitted inhibition curve with a large enough effect; inconclusive = small, poorly fitted or top-dose-only effect, or another doubt; inactive = no such curve, though single readings can be large or run the other way; note: series mostly up to about 120 µM
Target sequence (P11473 whole entry, looked up): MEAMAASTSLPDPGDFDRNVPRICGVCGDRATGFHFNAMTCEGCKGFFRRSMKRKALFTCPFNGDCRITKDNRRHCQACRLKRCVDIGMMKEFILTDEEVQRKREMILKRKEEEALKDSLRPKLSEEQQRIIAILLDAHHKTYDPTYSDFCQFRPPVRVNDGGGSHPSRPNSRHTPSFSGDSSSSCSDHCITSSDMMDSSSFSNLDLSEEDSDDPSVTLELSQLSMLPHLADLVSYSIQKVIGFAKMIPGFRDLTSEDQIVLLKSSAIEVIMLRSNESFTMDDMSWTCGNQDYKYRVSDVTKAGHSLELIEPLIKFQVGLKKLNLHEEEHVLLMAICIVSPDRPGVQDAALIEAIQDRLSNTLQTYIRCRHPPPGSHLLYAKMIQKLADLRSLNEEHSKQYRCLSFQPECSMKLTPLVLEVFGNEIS
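Two reagent solutions held at 4 deg C in the dark were dispensed, compounds pinned at 23 nl, and the mixture incubated 2 h at room temperature. Read-out: fluorescence polarization of VDR–SRC2-3 peptide binding.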
Starred values were filed as active, the others as inactive; ? = inconclusive; & = joins results of further samples; [ ] = dose if it differs, or a comment. % is set by controls: 0 for no effect and ±100 for the full control effect; potency is the fitted concentration of half-maximal effect. Some of the compounds tested; rates above refer to the full screens.

SMILES | VDR inh
CCC(=O)OCC(=O)[C@@]1(OC(=O)CC)[C@@H](C)C[C@H]2[C@@H]3CCC4=CC(=O)C=C[C@]4(C)[C@@]3(F)[C@@H](O)C[C@@]21C | 9%
CN(CC(=O)Nc1ccc(Cl)c(C(F)(F)F)c1)C(=O)CCCc1nc2ccccc2c(=O)[nH]1 | 10%
Cc1csc(NC(=O)CSc2ccc3nnc(CCNS(=O)(=O)c4ccccc4)n3n2)n1 | -19%
Cc1nn(CC(=O)N2CCN(c3cccc(C(F)(F)F)c3)CC2)c(=O)c2cc3sccc3n12 | -6%
Cc1[nH]c(=O)c(C(=O)c2ccccc2O)cc1C(=O)O | 8%
CCOc1ccc2c(c1)C(C)=CC(C)(C)N2C(=O)Nc1ccccc1F | -7%
CCc1cc2c(cc3c(=O)n(CCCC(=O)NCc4ccccc4Cl)nc(CC)n32)s1 | 19%
Cc1cccc(-n2c(Cc3ccccc3)n[nH]c2=S)c1 | 17%
COc1cccc(-c2cc(C(F)(F)F)n3ncc(C(=O)NCC4CCCO4)c3n2)c1 (stereo not given) | -11%
COc1ccccc1CCn1c(=O)c(-c2cc(F)cc(F)c2)nc2cncnc21 | ?
O=C(CCNC(=O)c1ccccc1Cl)N/N=C\c1ccc(O)cc1 | 22µM*
CCCNC(=O)C(Cc1ccccc1)NS(=O)(=O)c1cccc2nsnc12 (stereo not given) | -15%
O=C1c2cccnc2C(Nc2ccc(S(=O)(=O)N3CCCCC3)cc2)N1Cc1ccccc1 (stereo not given) | -1%
O=C(O)c1ccc(COc2c(F)c(F)cc(F)c2F)cc1 | -4%
CCNC(=O)CC1C(=O)N(c2ccccc2)C(=O)N1Cc1ccc(OC)cc1 (stereo not given) | -11%
CC(C)COc1ccc(CNC(=S)Nc2ccccc2)cc1Cl | -7%
Cn1c(N)c(C(=O)CSc2nnc(-c3ccccc3F)n2N)c(=O)n(C)c1=O | -3%
C=CCNc1nc2c(c(=O)n(C)c(=O)n2C)n1Cc1ccc(F)cc1 | -12%
CCCn1c(NC(=O)C23CC4CC(CC(O)(C4)C2)C3)nc2ccccc21 | 2%
O=C(CNC(=S)N(CCCN1CCOCC1)Cc1cccs1)NCCN1CCOCC1 | 2%
CCCN(CCC)C(=O)C1c2ccccc2Oc2ccccc21 | -2%
O=C(NCc1ccccc1)C(c1ccncc1)N(C(=O)c1csnn1)C1CC1 (stereo not given) | -1%
Cc1ccc(C(=O)Cn2nnc3c(sc4nc5c(c(-c6ccccc6)c43)CCC5)c2=O)cc1 | 7%
O=C(NCc1cccs1)c1ccncc1 | -1%
O=C(O)CC(NS(=O)(=O)c1ccc(Cl)s1)c1ccccc1 (stereo not given) | -5%
NC(N)=Nc1nc2ccccc2o1 | 19%
COc1cc(CN(C)C)cc(C=O)c1O | 7%
O=C(/C=C/c1ccccc1)NC(=S)Nc1cccnc1 | -19%
C#CCOCCOCCOCCNc1nc(N2CCN(C(=O)CCCCCCCCCCNC(=O)[C@@H](CCSC)n3cc(CCO)nn3)CC2)nc(N2CCN(C(=O)CCCCCCCCCCNC(=O)[C@H]([C@@H](C)CC)n3cc(CCCCN=C(N)N)nn3)CC2)n1 | 66%[activator]
CCC(C)C(NC(=O)OC(C)(C)C)C(=O)NCc1ccco1 (stereo not given) | -5%
O=C1CC(N2CCN(c3ccccc3Cl)CC2)C(=O)N1c1cccc(F)c1 (stereo not given) | -14%
CCOC(=O)CSc1ccc(C(=O)NCCCN2CCOCC2)cc1[N+](=O)[O-] | -9%
C=CCn1cccc(C(=O)Nc2ccc(OCC)cc2)c1=O | -12%
CCN(CC)CCN(C(=O)c1cccc(N2C(=O)CCC2=O)c1)c1nc2cc3c(cc2s1)OCO3 | 4%
CC(=O)c1cc(F)c(N2CCN(C(=O)C(C)(C)C)CC2)cc1C | 9%
O=C(NC1CCCCCCC1)c1cc([N+](=O)[O-])ccc1Cl | -19%
Cc1nc(NC(=O)c2ccccc2)sc1-c1csc(NCc2ccccc2)n1 | -4%
Cc1ccc(C(=O)OCC(=O)Nc2ccc3[nH]c(=O)[nH]c3c2)cc1S(=O)(=O)N1CCOCC1 | -12%
Cc1ccc(S(=O)(=O)Cc2cc(-c3ccc(Cl)cc3)no2)cc1 | 17%
O=C(N=C1SC2CS(=O)(=O)CC2N1c1ccc(F)cc1F)C1CC1 (stereo not given) | -25%
CN(CC(=O)Nc1ccc(F)c(F)c1F)C(=O)CCCSc1nc2ccccc2[nH]1 | -13%
COC(=O)c1c(NC(=O)C2CC=CCC2C(=O)O)sc(C)c1C (stereo not given) | -14%
Cc1ccc(Nc2nc(C(=O)N3CCC(C(=O)NCCN4CCOCC4)CC3)cs2)cc1 | -1%
COc1ccc(-c2nc(SC(C)C(=O)NCC3CCCO3)n[nH]2)cc1 (stereo not given) | -5%
O=C(CSc1nc2nn(-c3ccccc3)c(=O)c-2c2n1CCCCC2)NCCc1ccccc1 | 0%
O=C(OCC(=O)N1CCN(c2ccccc2)CC1)c1ccccc1NCCO | -5%
CCOc1ccc(S(=O)(=O)N2CCCCC2)cc1NC(=O)C1CSC2(C)CCC(=O)N12 (stereo not given) | 2%
Cc1c(C(=O)NCC2CCCO2)oc2ccc3c(c12)C(=O)CC(C)(C)O3 (stereo not given) | 10%
CCCC(=O)NC1=C(Cl)C(=O)c2ccccc2C1=O | 7.9µM*
CCN(CC)S(=O)(=O)c1ccc2c(c1)c(=O)c(C(=O)N1CCN(c3ccc(OC)cc3)CC1)cn2C | -25%
O=C(NCCNC(=O)c1ccccn1)c1ccccc1 | 0%
O=C(CSc1nnc(-c2cccnc2)o1)Nc1ccc(Cl)cc1 | -4%
Cc1ccc(-n2c(=O)c3cccnc3n2CC(=O)Nc2cc(Cl)ccc2C)cc1 | -1%
CCOC(=O)c1c(NC(=O)/C=C/C(=O)O)sc(C)c1-c1ccc(C)c(C)c1 | ?
Cc1ccccc1NC(=O)CSc1ccc(-c2ccc(-n3cccn3)cc2)nn1 | -3%
Cc1ccc(C(=O)Cn2c(NCCO)nc3ccccc32)cc1 | 15%
COC(=O)Cc1c(C)nc2nc(-c3cccnc3)[nH]n2c1=O | -24%
CC(=O)Nc1ccc(SC[C@H](C)CN2CC[C@H](O)CCC2=O)cc1 | ?
C=CCO/N=C(/C)c1ccc(Oc2cnccn2)cc1 | -14%
O=C(Cn1cccc1)Nc1ccc(F)cc1F | -16%

Other results follow:
SMILES | VDR inh
CC(=O)c1cccc(OCC(O)CN2CCN(C(=O)c3ccco3)CC2)c1 (stereo not given) | -2%
O=C(CNC(=O)c1ccccc1)OCCOc1cccc(Cl)c1 | 3%
Cc1ccc(/C=N/N2CCN(c3ccccn3)CC2)cc1 | 2%
Cc1c(C(=O)Nc2ccc(F)c(F)c2)oc2ccc(S(=O)(=O)N3CCCCC3)cc12 | 12%&8%
O=C(CSc1ccc(Cl)cc1)N1CCOCC1 | -10%
Cc1cc(C)cc(NC(=O)CN2CCN(c3ccccc3)CC2)c1 | -2%
CN(C)CCNC(=O)c1cccc(S(=O)(=O)Nc2ccc(F)cc2)c1 | -3%
Cc1ccc(C)c(Cn2c3ccccc3c3cnn(CC(=O)NCCC4=CCCCC4)c(=O)c32)c1 | 5%
CC(C)(C)C(=O)/C=C1\SCC(=O)N1CC(=O)N1CCN(c2ccccc2)CC1 | 26%
COc1ccccc1CN1CCC(CNS(=O)(=O)c2cc(-c3cc(C)no3)ccc2OC)CC1 | 2%
CCCCNC(=O)CSc1nccn1Cc1ccccc1 | -3%
Cc1ccc2scc(N3CCCCC3C)c(=O)c2c1 (stereo not given) | 4%
O=C(Nc1c2c(nn1-c1ccc(Cl)cc1)CS(=O)(=O)C2)c1ccc(Br)cc1 | 7%
O=C(CNC(=O)C(c1ccccc1)c1ccccc1)OCC(=O)c1cccs1 | -3%
NS(=O)(=O)c1cc(C(=O)OCC(=O)Nc2ccc(N3CCCCC3)cc2)ccc1Cl | -18%
CNc1nc(Nc2ccc(C(C)=O)cc2)nc(OC(C(F)(F)F)C(F)(F)F)n1 | -7%
CCOC(=O)C1CCN(C(=O)c2cccc(NS(=O)(=O)c3ccc(Br)cc3)c2)CC1 | 5%
COc1ccc(N(CC(=O)N2CCOCC2)S(C)(=O)=O)c(OC)c1 | ?
COc1cccc(CNC(=O)CCC2CCCN(C(=O)c3csc(C(C)C)n3)C2)c1 (stereo not given) | -15%
CC(C)(C)C(=O)NC(=S)Nc1ccc(Cl)c(C(=O)O)c1 | 1%
Cc1c(C(=O)Nc2ccccc2N2CCN(C)CC2)oc2ccc(F)cc12 | -9%
COc1ccc(CCNC(=O)CCn2c(=O)c3ccccc3n(Cc3ccccc3C)c2=O)cc1OC | -2%
O=C(COc1ccccc1Cl)Nc1ccc(C(=O)O)cc1NC(=O)COc1ccccc1Cl | 3%
COc1cc(C=O)ccc1OCCOCCOc1ccc(Cl)cc1Cl | ?
CO/N=C/CC(=O)c1cnc(-c2ccccc2)s1 | -3%
COc1cccc(NC(=O)Nc2cnccn2)c1 | 8%
CC(=O)c1cccc(NC(=O)COc2ccccc2)c1 | 34%[activator]
CCNC(=O)NNC(=O)C1CC(c2cccs2)=NO1 (stereo not given) | 11%
COc1ccc(Cl)cc1NC(=O)CN1CCN(Cc2ccccc2)CC1 | -11%
COc1cc(C(=O)Nn2c(O)c(C3=c4ccccc4=NC3=O)sc2=S)ccc1O | -25%
Cc1cc(C)cc(NC(=O)CSc2nc3[nH]c(=O)cc(O)c3s2)c1 | 1%
CC1CN(S(=O)(=O)N(C)C)CCN1S(=O)(=O)N(C)C (stereo not given) | -7%
O=C(Nc1ccc(S(=O)(=O)NCc2cccnc2)cc1)c1ccccc1Cl | -17%
O=C(Nc1ccc(-n2cnnn2)cc1)C(c1ccccc1)c1ccccc1 | -1%
CCn1ccc(C(=O)N2CCOCC2)n1 | -7%
CCN(C(=O)CN1C(=O)COc2ccc(S(=O)(=O)N3CCOCC3)cc21)c1ccc(OC)cc1 | 9%&7%
Cc1cc(C)nc(NS(=O)(=O)c2ccc(NC(=O)Nc3ccccc3F)cc2)n1 | -15%
COc1ccccc1CCNC(=O)COc1cccc2c1OC(C)(C)C2 | 6%
CCOC(=O)c1c(C)nsc1NC(=O)C1CCCCC1 | -7%
COc1cc(OC)cc(C(=O)Nc2ccccc2-c2nnn(CC(N)=O)n2)c1 | -11%

Of the compounds above, these have a Cl atom.
SMILES | VDR inh
CN(CC(=O)Nc1ccc(Cl)c(C(F)(F)F)c1)C(=O)CCCc1nc2ccccc2c(=O)[nH]1 | 10%
CCc1cc2c(cc3c(=O)n(CCCC(=O)NCc4ccccc4Cl)nc(CC)n32)s1 | 19%
O=C(CCNC(=O)c1ccccc1Cl)N/N=C\c1ccc(O)cc1 | 22µM*
CC(C)COc1ccc(CNC(=S)Nc2ccccc2)cc1Cl | -7%
O=C(O)CC(NS(=O)(=O)c1ccc(Cl)s1)c1ccccc1 (stereo not given) | -5%
O=C1CC(N2CCN(c3ccccc3Cl)CC2)C(=O)N1c1cccc(F)c1 (stereo not given) | -14%
O=C(NC1CCCCCCC1)c1cc([N+](=O)[O-])ccc1Cl | -19%
Cc1ccc(S(=O)(=O)Cc2cc(-c3ccc(Cl)cc3)no2)cc1 | 17%
CCCC(=O)NC1=C(Cl)C(=O)c2ccccc2C1=O | 7.9µM*
O=C(CSc1nnc(-c2cccnc2)o1)Nc1ccc(Cl)cc1 | -4%
Cc1ccc(-n2c(=O)c3cccnc3n2CC(=O)Nc2cc(Cl)ccc2C)cc1 | -1%
O=C(CNC(=O)c1ccccc1)OCCOc1cccc(Cl)c1 | 3%
O=C(CSc1ccc(Cl)cc1)N1CCOCC1 | -10%
O=C(Nc1c2c(nn1-c1ccc(Cl)cc1)CS(=O)(=O)C2)c1ccc(Br)cc1 | 7%
NS(=O)(=O)c1cc(C(=O)OCC(=O)Nc2ccc(N3CCCCC3)cc2)ccc1Cl | -18%
CC(C)(C)C(=O)NC(=S)Nc1ccc(Cl)c(C(=O)O)c1 | 1%
O=C(COc1ccccc1Cl)Nc1ccc(C(=O)O)cc1NC(=O)COc1ccccc1Cl | 3%
COc1cc(C=O)ccc1OCCOCCOc1ccc(Cl)cc1Cl | ?
COc1ccc(Cl)cc1NC(=O)CN1CCN(Cc2ccccc2)CC1 | -11%
O=C(Nc1ccc(S(=O)(=O)NCc2cccnc2)cc1)c1ccccc1Cl | -17%
